Screens (PubChem BioAssay)
ClpP mod – qHTS Assay for Activators of ClpP; ATP-dependent Clp protease proteolytic subunit (Bacillus subtilis (strain 168)), P80244; Potency, µM (doses to about 57.5 µM), for inactives: at the top dose activity change, negative = active; AID 651965, 2013; purified B. subtilis ClpP, FRET peptide cleavage, 20 min; 340,000 tested, 1.9% active; active = well fitted falling curve with a large enough effect; inconclusive = small, poorly fitted or top-dose-only effect; inactive = no such curve, though single readings can be large or run the other way; further: potency means the concentration at half of the fitted maximal effect; the source files actives as falling curves though it sought activators and does not explain the sign; nearly all actives have a fitted effect of over 65% in size; many hits overshoot -100%
Target sequence (P80244 whole entry, looked up): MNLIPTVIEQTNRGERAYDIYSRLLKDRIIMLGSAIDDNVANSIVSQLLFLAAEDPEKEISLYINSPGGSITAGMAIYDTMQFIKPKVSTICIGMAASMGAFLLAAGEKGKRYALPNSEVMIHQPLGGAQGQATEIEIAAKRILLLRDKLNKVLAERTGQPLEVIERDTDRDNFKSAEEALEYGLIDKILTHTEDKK
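FRET quenching reversal measured ClpP activation: 10 microg/mL B. subtilis ClpP at pH 8 with the FRET-FV decapeptide, read at 430 nm after 320 nm excitation. The 20-min minus 0-min signal was scaled between DMSO/no-enzyme wells and ADEP (5.8 microM final).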
gsp ag – activates gsp, the McCune-Albright syndrome mutation. 340,000 tested, 0.13% active. gsp mutant cells, cAMP HTRF, 30 min; control for the full effect not named in the record. Potency, µM (top dose mostly 76.9 µM), inactives show at the highest dose activation (cAMP increase), hits mostly activators; active = well fitted activation curve with a large enough effect; inconclusive = small, poorly fitted or top-dose-only effect, or another doubt; inactive = no such curve, though single readings can be large or run the other way; cell line not stated here;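 further: phosphodiesterase inhibitor Ro 20-1724 added with compounds to block cAMP breakdown; potency means the concentration at half of the fitted maximal effect; nearly all actives have a fitted effect of over 60% in size; about a fifth of the inactives were tested at one dose only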
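Cells stably selected in G418 were plated at 2000/well, grown 16-24 hr, then given compounds in DMSO with the PDE inhibitor […] (300 uM solution added) for 30 min at 37C; cAMP was read by HTRF.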
TRPV1 potentiator – enhances activation of the human vanilloid receptor TRPV1; Q8NER1; TRPV1-expressing cells, Fluo-8 calcium influx, capsaicin EC20 potentiation; host cell line not named in the record; control for the full effect not named in the record; potentiation, % at 8.33 µM; 320,000 tested, 0.02% active; active means potentiation above 80%; inconclusive means 30% to 80%; inactive means below 30%; further: 0% is about no effect
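Fluo-8 calcium influx in TRPV1-expressing cells, kinetic read (ex 480/em 520 nm). Compound added and read 3 min for agonist activity, followed by capsaicin at EC20 final and 2 min further read for enhancement.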
Menin MLL FP FL – displaces fluorescein MLL peptide from human menin; Fluorescence polarization, fluorescein-MLL peptide displacement from menin; FP activity change, % at 61.4 µM; 290,000 tested, under 10 active; AID 1766; inconclusive = falling polarisation curve, or a change in total fluorescence; inactive = total fluorescence flat and polarisation flat or rising; no compound was filed as active; the % refers to the polarisation; negative = inhibition;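 further: % of control where 0% means no effect; inhibitors lower the polarisation; unlabelled MLL peptide was the positive control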
gsp antag – antagonizes gsp, the McCune-Albright syndrome mutation | AID 624288 | 340,000 tested, 0.4% active | Potency, µM (highest dose often 76.9 µM), without a hit: at the highest dose activity change, negative = inhibition, most hits filed as inhibitors | gsp-mutant cells, cAMP HTRF, 30 min; control for the full effect not named in the record; active = falling curve of any shape with a large fitted effect; inconclusive = falling curve, mostly with a smaller effect; inactive = flat or rising curve; cell line not stated here;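 further: intracellular cAMP measured with PDE inhibitor Ro 20-1724 present during compound exposure; potency means the concentration at half of the fitted maximal effect; on the % scale 0 is the no-effect control and ±100 the full control effect; nearly all actives have a fitted effect of over 65% in size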
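Cells, 2000/well, grown 16–24 h in DMEM 10% FBS with 0.5 mg/ml G418, then compounds plus […] (300 uM addition stock), 30 min at 37C. cAMP read by HTRF (cAMP-d2 and anti-cAMP antibody-K in lysis buffer) after 30 min RT.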
TRPML1 inh – inhibitors of human TRPML1 channel; Q9GZU1; TRPML1-inducible cells, Ca2+ dye fluorescence, FDSS; stronger effect = lower value; inhibition of EC80 agonist-evoked calcium signal; activity change, negative = inhibition, % (concentration not given with the values); 390,000 tested, 0.02% active; AID 624415; in the data active means activity change below about -50%; inconclusive means about -30% to -50%; inactive means above about -30%;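 further: stimulus is agonist 54-4 at its EC80 concentration; on the % scale 0 is the no-effect control and ±100 the full control effect; compound concentration not given in the record; the text of the record puts the active cut at -80%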
Target sequence (Q9GZU1 whole entry, looked up): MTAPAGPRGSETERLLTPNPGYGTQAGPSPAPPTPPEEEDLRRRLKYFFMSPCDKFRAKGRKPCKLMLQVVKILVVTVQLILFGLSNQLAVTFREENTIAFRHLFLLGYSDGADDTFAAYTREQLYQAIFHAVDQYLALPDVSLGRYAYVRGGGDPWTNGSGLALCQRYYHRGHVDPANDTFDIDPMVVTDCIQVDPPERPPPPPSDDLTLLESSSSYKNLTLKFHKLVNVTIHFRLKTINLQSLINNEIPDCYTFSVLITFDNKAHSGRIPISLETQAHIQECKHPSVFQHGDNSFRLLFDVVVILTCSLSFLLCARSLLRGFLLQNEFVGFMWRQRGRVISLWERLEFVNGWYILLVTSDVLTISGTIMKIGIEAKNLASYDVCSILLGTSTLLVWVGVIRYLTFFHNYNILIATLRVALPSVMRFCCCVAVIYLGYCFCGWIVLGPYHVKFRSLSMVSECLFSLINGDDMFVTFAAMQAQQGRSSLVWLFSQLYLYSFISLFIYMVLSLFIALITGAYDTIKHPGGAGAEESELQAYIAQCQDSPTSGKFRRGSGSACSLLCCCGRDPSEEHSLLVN
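Calcium fluorescence in TRPML1-DL cells induced overnight with Tet: a 110 s read after compound pin addition, then a 110 s antagonist read after challenge with 54-4 at 4 uM final (EC80).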
Sfp inh – Sfp phosphopantetheinyl transferase inhibition; 310,000 tested, 3.5% active; Biochemical Sfp PPTase activity, qHTS; Potency, µM, for inactives: max response, negative = inhibition, most hits filed as inhibitors; active means well fitted inhibition curve with a large enough effect; inconclusive means small, poorly fitted or top-dose-only effect, or another doubt; inactive means no such curve, though single readings can be large or run the other way;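 further: the enzyme is Sfp with the accession as filed and its product quenches rhodamine fluorescence; potency means the concentration at half of the fitted maximal effect; 0% = enzyme reaction without inhibitor and -100% = no enzyme wells; top concentration of the series not given in the record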
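With Hepes-Na pH 7.6 buffer containing 10 mM MgCl2, Sfp (15 nM) modified BHQ-2-YbbR (12.5 uM) using rhodamine-CoA (5 uM). Two reads 30 minutes apart at 525/598 nm yielded each well's rate.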
Starred values were filed as active, the others as inactive; ? = inconclusive; nt = no result given; [ ] = another dose, or the depositor's remark.

cpd	structure	TRPV1 potentiator	ClpP mod	TRPML1 inh	gsp antag	gsp ag	Menin MLL FP FL	Sfp inh
1	CCOc1ccc2nc(NCCNC(=O)C3CC3)c(C)cc2c1	-7	40µM*	5	-2%	-25%	-0.7	-1%
2	CCS(=O)(=O)Nc1ccc(C(=O)OC)cc1	1	-3.1%	3	-9%	2%	-5.7	9%
3	CC(C)c1ccc2[nH]c(O)c(N=NC(=O)c3cccc(S(=O)(=O)Nc4ccccc4Cl)c3)c2c1	7	nt	-3	-19%	-3%[15.4 µM]	-0.7	-8%
4	Cc1ccc(-n2nc(C)c(C(=O)O)n2)c(C)c1	1	-0.7%	58	-16%	0%[15.4 µM]	-0.7	3%
5	Cc1ccc(-c2cc(-c3cccc(F)c3)n[nH]2)c(O)c1	3	-0.8%	7	-26%	18%	5.9	1%
6	Cc1ccc(NS(=O)(=O)c2ccc3c(c2)n(C)c(=O)c(=O)n3C)c(C)c1	0	-8.8%	-2	3%	?	-4.7	11%
7	COc1cccc(NS(=O)(=O)c2cc3c(cc2C)N(C(C)=O)CCO3)c1	10	1.9%	2	-8%	-4%	3.7	-7%
8	NS(=O)(=O)c1ccc(-c2ccc(C=O)o2)cc1	-5	nt	5	-7%	-7%[15.4 µM]	-0.5	12%
9	Cn1c(=O)c2c(nc(-n3ccnc3)n2C)n(C)c1=O	0	-1.4%	14	4%	0%	1.1	22%
10	CCOC(=O)C(CCCCP(=O)(c1ccccc1)c1ccccc1)(NC(C)=O)C(=O)OCC	3	-1.5%	-5	4%	-5%[15.4 µM]	2.0	8%
11	Cc1cc(C)c2cc3c(N)c(C(=O)Nc4c(C)[nH]c(=O)[nH]c4=O)sc3nc2c1	?	-12%	-15	5%	25%	7.3	?
12	FC(F)(F)c1cc(Sc2ccccc2)nc(-c2ccccn2)n1	9	-1.4%	2	-13%	5%	1.3	-1%
13	Oc1cccc(NC(=S)Nc2ccc(SC(F)F)cc2)c1	-1	-1.0%	-3	12%	-10%[15.4 µM]	18	-12%
14	CCCn1c(-c2ccc(OC)cc2)nc2c(=O)n(C)c(=O)[nH]c21	9	?	8	-10%	-16%	2.1	13%
15	Cc1onc(-c2ccccc2)c1C(=O)NCCc1ccc(Cl)cc1	16	0.9%	-2	6%	4%	0.2	-1%
16	O=C(NCC12CC3CC(CC(C3)C1)C2)c1nn2cccnc2c1Cl	2	-5.0%	-10	-14%	0%	22	?
17	Cc1nn(-c2ccccc2)c2nc(N)c(C#N)c(-c3ccc(C(C)(C)C)cc3)c12	3	-21%	2	-9%	-7%	3.1	15%
18	CCN(CC)C(=O)CSc1nc2ccccc2c(=O)n1CCC(=O)NCc1ccc(F)cc1	-3	1.2%	5	-3%	-16%	0.4	12%
19	O=C(Nc1ccc(S(=O)(=O)Nc2ncccn2)cc1)C1=NN(c2ccccc2)C(=O)CC1	-7	3.3%	53	1%	-26%	3.5	-7%
20	C[C@H](NC(=O)c1nc[nH]c1C(=O)NCCCCCN)C(=O)OCc1ccccc1	3	0.6%	-11	14%	-16%	nt	nt

Along the list, quoted from above.
Compounds 1 to 9 in ClpP mod: 40µM*, -3.1%, nt, -0.7%, -0.8%, -8.8%, 1.9%, nt, -1.4%
Compounds 1 to 9 in gsp antag: -2%, -9%, -19%, -16%, -26%, 3%, -8%, -7%, 4%

The list goes on:
cpd	structure	TRPV1 potentiator	ClpP mod	TRPML1 inh	gsp antag	gsp ag	Menin MLL FP FL	Sfp inh
21	CCOc1ccc(Cl)cc1CNCCNCC(C)O (centres undefined)	-6	-0.4%	6	12%	-25%	2.8	-2%
22	O=C(Nc1ccc(OCC(F)(F)C(F)F)cc1)c1ccncc1	-7	-1.3%	22	-9%	?	2.8	1%
23	COCCn1c(Cc2ccccc2)nnc1SCC(=O)NC(C)C	-2	0.8%	0	-2%	-49%[inhibitor]	-1.9	6%
24	O=C(NCc1ccccc1)Nc1cccc2ccccc12	22	-17%	10	9%	?	3.5	9%
25	CCCCN(C(=O)CSc1nnnn1C)c1c(N)n(Cc2ccccc2)c(=O)[nH]c1=O	-4	nt	-19	11%	-4%[15.4 µM]	0.5	17%
26	CCn1c(CCCOc2ccc(Cl)cc2Cl)nnc1SCC(=O)Nc1cc(F)ccc1C	-5	-1.4%	16	-24%	-24%	3.7	15%
27	Clc1ccsc1-c1ccnc(-n2cccc2)n1	?	nt	-15	10%	?	-1.3	7%
28	COCCNC(=O)NC(=O)CSc1nc(C)c(C)c(C)n1	-5	nt	18	7%	-10%[15.4 µM]	-0.7	-11%
29	CC(C)N1CCN(Cc2cccn2-c2ccccn2)CC1CCO (centres undefined)	-3	-12%	-4	7%	?	0.3	6%
30	CCO[C@H]1OC(C(=O)NC2CC2)=C[C@@H](c2ccc3c(c2)OCO3)[C@@H]1CCCO	-3	-1.6%	-5	-4%	-21%	2.2	-4%
31	O=C(O)c1nc(-c2ccccc2)n(-c2ccc(Cl)cc2)n1	0	-7.1%	5	2%	-29%	2.6	21%
32	CC1(C(=O)OCc2cc(=O)n3cc(Br)ccc3n2)CC1(Cl)Cl (centres undefined)	-14	nt	-8	-6%	?	-2.0	13%
33	O=C(CCCC1=NS(=O)(=O)c2ccccc2N1)N1CCN(c2ccc([N+](=O)[O-])cc2)CC1	4	-0.2%	17	9%	7%	nt	8%
34	CCOC(=O)c1ccc(S(=O)(=O)N2CCN(C/C=C/c3ccccc3)CC2)cc1	nt	0.8%	-6	?	21%	nt	nt
35	O=S(=O)(c1cccc(S(=O)(=O)N2CCCC2)c1)c1cccc(S(=O)(=O)N2CCCC2)c1	6	-0.7%	-5	-19%	?	0.6	8%
36	O=C(CN1C(=O)COc2ccccc21)N1CCc2ccccc2C1	16	-0.5%	9	7%	?	3.1	-6%
37	Cc1ccc(C)c(NC(=S)N2CCC(NC(=O)c3ccccc3)CC2)c1	-3	nt	-6	-2%	0%[15.4 µM]	-3.0	5%
38	O=C(O)C1OCC2(CO1)COC(C(=O)O)OC2 (centres undefined)	nt	4.0%	9	15%	-2%[15.4 µM]	nt	nt
39	Cc1ccc(NC(=O)c2cc(N3C(=O)CCC3=O)ccc2N2CCOCC2)cc1	1	0.2%	3	-11%	9%[15.4 µM]	0.4	10%
40	CNC(=O)c1cc(C(=O)c2ccc(Cl)cc2)c(Br)[nH]1	-16	-2.4%	6	-11%	2%	5.7	11%
41	O=C(O)CC(NC(=O)Cc1ccc([N+](=O)[O-])cc1)c1ccc2c(c1)OCO2 (centres undefined)	-1	nt	-6	-9%	4%[15.4 µM]	-1.9	15%
42	COc1ccc(OCC(=O)N/N=c2\oc3c(OC)cccc3cc2C(N)=O)cc1	5	-3.3%	1	8%	-44%[inhibitor]	2.8	-8%
43	O=C(CCCn1c(=O)[nH]c2cc(Cl)ccc2c1=O)NCC1CCCO1 (centres undefined)	-16	-21%	-21	14%	3%	4.5	5%
44	Cc1cccc(C(=O)N2CCN=C2SCc2ccc([N+](=O)[O-])cc2)c1	23	nt	38	-1%	-2%[15.4 µM]	-1.8	2%
45	O=S(=O)(Nc1ccon1)c1ccc(F)c(F)c1	1	-1.8%	-9	9%	27%	nt	14%
46	CC(OC(=O)Cn1cnc2ccccc2c1=O)C(=O)NCc1ccccc1 (centres undefined)	-15	nt	17	4%	7%[15.4 µM]	nt	nt
47	CCc1ccccc1NC(=O)CCC(=O)c1cccs1	?	2.1%	-2	11%	-8%	nt	2%
48	CC(=O)Nc1ccc(S(=O)(=O)N2CCC(C(=O)NCc3ccncc3)CC2)cc1	-4	nt	-5	8%	16%	nt	19%
49	Cc1ccc(C(=O)N/C(=C\c2ccc([N+](=O)[O-])cc2)C(=O)NCCc2ccccc2)cc1	4	-0.7%	3	11%	-18%	8.5	20%
50	COc1ccc(-c2cc3nc(-c4ccccc4)cc(N4CCN(C(=O)c5ccccc5)CC4)n3n2)cc1	nt	4.3%	11	nt	0%	nt	nt
51	NC(=O)c1cnccc1C=Cc1ccccc1	nt	0.2%	9	-1%	-17%[15.4 µM]	nt	nt
52	CC(C)CCC1=NN(C(=O)c2ccco2)C(O)(C(F)(F)F)C1 (centres undefined)	10	nt	3	-1%	-40%[inhibitor]	-1.2	3%
53	CC1CCCC(C)N1/N=C/c1ccccc1Br (centres undefined)	12	-1.8%	10	2%	-6%[15.4 µM]	-2.2	7%
54	CCC(=O)Nc1cccc(NC(=S)NC(=O)c2cccc(C)c2)c1	-12	0.6%	-6	-3%	6%	nt	-15%
55	CCOC(=O)c1ccc(NC(=O)Nc2ccc(F)cc2)cc1	2	-0.4%	-10	-26%	-3%	2.1	-4%
56	Cc1cc(C)c2c(=O)[nH]c(SCC(=O)Nc3ccccc3)nc2n1	0	?	14	16%	-25%	-0.4	-20%
57	Cc1onc(-c2c(F)cccc2Cl)c1C(=O)NCCc1ccncc1	-1	-1.4%	5	-3%	-11%	nt	12%
58	CCOC(=O)c1cnn2c(N)c(C#N)nnc12	-6	-6.2%	-2	3%	9%	7.9	-31%
